# Source: PubChem BioAssay
# INS promoter inh: TRM-6 insulin promoter activity inhibition. AID 1273. TRM-6 cells (human fetal islet line), insulin promoter-eGFP reporter, imaging; reporter expression induced with tamoxifen. 130,000 compounds, 0.9% hits. inhibition, % at 2 µM;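 active = inhibition above the mean plus 3 SD, with well images judged a real hit on visual review, cut at about 60% in these data, passing the limit was not always enough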
# HSV replic up: HSV replication enhancement; HSV replication augmentation in cells, fold increase; maximum fold increase; 220,000 compounds, 0.005% hits; AID 1956;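 active = peak rise of 1.5-fold or more in the series; tested in PC3 cells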;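 note: first round at 10 µM; read as green reporter fluorescence; hits show the peak of a series up to 25 µM; 1 = signal of infected wells without compound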
# GALR2 agonist: GALR2 (human) receptor agonism; GALR2-expressing cells, agonist activation read-out; O43603; 140,000 compounds, 0.48% hits; activation, %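 (tested at 5 µM)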; AID 803;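 active = above mean plus 3 SD of all compounds, about 5% in these data, not always enough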;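 note: 0% = vehicle buffer wells and 100% = reference agonist at full effect; tested in CHO reporter cells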
# RGS16-Gao: RGS16-Galphao interaction regulator (human); 220,000 compounds, 0.38% hits; AID 1441; O15492+P09471; binding response (% of control), % at 10 µM; bead-based flow cytometry RGS16-Galphao binding, fluorescence; actives lie on both sides;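 active = below 25% or above 175%, edge rows of some plates excepted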;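 note: Galphao activated by GDP with aluminum fluoride before binding; 100% = wells without compound and 0% = beads without RGS; some results beyond the cut were filed as inactive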
# PKD1 inh: inhibitors of human PKD1 kinase | Q15139 | PKD1 kinase fluorescence polarization assay | inhibition, %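 (about 10 µM by stock and volumes)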 | 200,000 compounds, 0.056% hits | AID 797;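 active = inhibition of 50% or more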;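 note: controls were vehicle for no effect and a reference inhibitor for full effect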
# Target sequence (Q15139 whole entry, looked up): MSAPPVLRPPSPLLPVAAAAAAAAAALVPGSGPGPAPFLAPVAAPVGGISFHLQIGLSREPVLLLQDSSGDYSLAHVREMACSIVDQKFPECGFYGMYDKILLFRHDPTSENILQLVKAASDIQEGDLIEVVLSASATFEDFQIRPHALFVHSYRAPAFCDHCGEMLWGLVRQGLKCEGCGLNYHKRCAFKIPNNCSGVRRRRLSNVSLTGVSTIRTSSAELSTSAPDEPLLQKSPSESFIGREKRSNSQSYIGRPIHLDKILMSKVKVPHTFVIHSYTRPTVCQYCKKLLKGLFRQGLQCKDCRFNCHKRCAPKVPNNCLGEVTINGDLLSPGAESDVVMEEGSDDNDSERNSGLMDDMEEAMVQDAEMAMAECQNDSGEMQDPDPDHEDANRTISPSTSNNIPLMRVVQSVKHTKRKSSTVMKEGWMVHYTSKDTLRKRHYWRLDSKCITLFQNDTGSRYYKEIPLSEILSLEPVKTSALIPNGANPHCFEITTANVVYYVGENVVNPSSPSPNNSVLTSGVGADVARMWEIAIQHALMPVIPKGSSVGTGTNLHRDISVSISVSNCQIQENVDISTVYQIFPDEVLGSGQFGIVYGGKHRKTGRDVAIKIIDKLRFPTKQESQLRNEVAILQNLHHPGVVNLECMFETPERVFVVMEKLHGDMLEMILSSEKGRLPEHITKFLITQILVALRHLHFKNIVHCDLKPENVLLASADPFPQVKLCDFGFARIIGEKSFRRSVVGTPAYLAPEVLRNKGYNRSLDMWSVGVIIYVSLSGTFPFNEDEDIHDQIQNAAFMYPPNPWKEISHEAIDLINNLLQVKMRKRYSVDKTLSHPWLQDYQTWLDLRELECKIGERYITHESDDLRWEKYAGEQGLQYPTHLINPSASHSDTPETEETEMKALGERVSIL
# INS promoter inh cell count: also measured in INS promoter inh; calls as there; normalized cell count, %; measured here: cell count, toxicity; reference of the scale not given here;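 cells exposed to compound for 48 h; stained nuclei by imaging scaled within each plate; lower means fewer cells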
# HSV replic up primary fold: recorded beside HSV replic up, whose call it bears; fold increase; compound at 10 µM; measured here: primary screen fold increase 10 uM; tested in PC3 cells;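 GFP signal in the first replicate; 1 = infected wells without compound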
# * = called active by the depositor; i = inactive; x = no result given.
Molecule | GALR2 agonist | RGS16-Gao | HSV replic up primary fold | INS promoter inh cell count | HSV replic up | INS promoter inh | PKD1 inh
Cc1ccc2c(c1)CCCN2N=O | 0.4 | 101 | 0.93 | 83 | i | 3 | -2
Cc1c(N=Nc2c(O)n(Cc3ccccc3)c(=O)[nH]c2=O)c(=O)n(-c2ccccc2)n1C | 0.4 | 113 | 0.91 | 101 | i | -19 | -2
c1ccc(-c2ccc(-c3n(-c4ccccn4)c4ccccc4[n+]3-c3ccccn3)cc2)cc1 | x | 104 | 0.86 | 70 | i | 0 | -2
O=C(NC(Oc1ccccc1)C(Cl)(Cl)Cl)c1ccccc1 (stereo not drawn) | -1.8 | 101 | 1.1 | 151 | i | 26 | 12
Cc1ccccc1N1C(=O)CC(=O)N(c2ccccc2C)C1=O | -0.4 | 72 | 0.96 | 99 | i | 8 | -4
COc1ncccc1C(=O)NCC(CC(=O)O)c1ccccc1 (stereo not drawn) | -1.1 | 79 | 0.81 | 127 | i | 23 | 6
N#CCCn1cc(C(=O)O)c(-c2cccc([N+](=O)[O-])c2)n1 | x | 99 | 0.99 | x | i | x | 6
N=C1c2ccccc2CN1NC(=O)c1ccc(F)cc1 | -1.3 | 101 | 0.65 | x | i | x | 0
CC(C)NS(=O)(=O)c1ccc(OCC(=O)N2CCN(Cc3ccc4c(c3)OCO4)CC2)c(Cl)c1 | -0.9 | 106 | 0.95 | 86 | i | -7 | -2
C=CCn1c(O)c(C(CC)=NCc2ccco2)c(=O)[nH]c1=O | x | 102 | 0.9 | x | i | x | x
CC(c1ccc(F)cc1)n1cc(C(=O)NCc2ccc3c(c2)OCO3)nn1 (stereo not drawn) | -4.4 | 102 | 1.1 | x | i | x | 7
N=c1n(CCO)c2ccccc2n1Cc1ccccc1 | -2.8 | 121 | 1 | 131 | i | -7 | 5
CCN(CC)c1ccc(N=Cc2c(O)n(-c3ccc(OC)cc3)c(=O)[nH]c2=O)cc1 | -2.6 | 101 | 1.1 | 121 | i | 32 | -9
COc1ccc(S(=O)(=O)NCc2ccc(C(=O)N3CCC4(CC3)OCCO4)cc2)cc1 | -1.0 | 97 | 0.99 | x | i | x | 5
Clc1ccc2c(c1)C(c1ccccc1Cl)=NCc1nnc(N3CCN(CCSc4ccccc4)CC3)n1-2 | 0.6 | 102 | x | x | x | x | -19
Cc1ccc(-n2c(O)c(C=NCc3ccco3)c(=O)[nH]c2=S)cc1C | x | 97 | 1.2 | x | i | x | x
O=C(CN1CC=C(c2ccccc2)CC1)Nc1cc(Cl)ccc1Cl | -1.2 | 101 | 1 | 78 | i | -45 | -11
CN(C)P1(N(C)C)=NC(C(F)(F)F)=NC(C(F)(F)F)=N1 | -0.6 | 107 | 0.99 | x | i | x | -1
N#CC1=C(N)Oc2c(c(=O)sc3ccccc23)C1c1cccnc1 (stereo not drawn) | x | 103 | 0.66 | 165 | i | 25 | -6
N[C@@H](Cc1c[nH]c2ccccc12)c1nnc(SCc2ccc(F)cc2)o1 | -3.2 | 93 | 0.81 | 134 | i | 7 | 2
COc1ccc(-n2c(O)c(C(C)=NCCN3CCNCC3)c(=O)[nH]c2=O)cc1 | -1.3 | 96 | 0.99 | x | i | x | -9
CCN1C(=O)c2ccccc2Sc2ccc(C(=O)N3CCC4(CC3)OCCO4)cc21 | -0.9 | 102 | x | x | x | x | -14
O=S1(=O)CC2(N3CCOCC3)CCCCC21 (stereo not drawn) | -0.7 | 73 | 1.1 | 113 | i | 27 | 5
O=P(OCC(F)(F)C(F)F)(N1CCCCC1)N1CCCCC1 | 0.3 | 104 | 0.98 | 117 | i | 35 | -6

# Compounds from the list above with a furan ring, fused or not, in the order listed:
Molecule | GALR2 agonist | RGS16-Gao | HSV replic up primary fold | INS promoter inh cell count | HSV replic up | INS promoter inh | PKD1 inh
C=CCn1c(O)c(C(CC)=NCc2ccco2)c(=O)[nH]c1=O | x | 102 | 0.9 | x | i | x | x
Cc1ccc(-n2c(O)c(C=NCc3ccco3)c(=O)[nH]c2=S)cc1C | x | 97 | 1.2 | x | i | x | x

# Next results.
Molecule | GALR2 agonist | RGS16-Gao | HSV replic up primary fold | INS promoter inh cell count | HSV replic up | INS promoter inh | PKD1 inh
Cc1ncc(CN2CCCC(C(=O)c3sccc3C)C2)s1 (stereo not drawn) | x | 116 | 0.95 | x | i | x | -3
Cc1oc(-c2cccs2)nc1CSCC(=O)N1CCC2(CC1)OCCO2 | -1.0 | 101 | 0.98 | 90 | i | -9 | 1
CCOC(=O)C1CCN(/C=C2/C(=O)NC(=O)N(c3ccc(OCC)cc3)C2=O)CC1 | -3.8 | 101 | 0.73 | x | i | x | -15
CC(=O)c1c(C)n(C(C)C)c2ccc(O)cc12 | 0.6 | x | x | 66 | x | -269 | 2
O=C(CN1CC=C(c2ccccc2)CC1)NC(=O)NCc1ccccc1 | x | 98 | 1.2 | x | i | x | 5
CC(=NCc1ccc2c(c1)OCO2)c1c(O)n(-c2ccccc2)c(=O)[nH]c1=O | x | 102 | 0.97 | x | i | x | x
Cc1ccc(/C=C2/C(=O)NC(=O)N(C)C2=O)cc1 | -1.6 | 96 | 0.92 | 94 | i | 3 | -6
Cc1ccc(CN2CCCC(C(=O)c3sccc3C)C2)o1 (stereo not drawn) | x | 95 | 1 | x | i | x | -3
CN1CCN(c2ccc3nccnc3c2)CC1 | x | 109 | 0.92 | 114 | i | 17 | -1
Cc1ccc2cccc(OC(=O)N(C)c3ccccc3)c2n1 | 0.2 | 105 | 0.91 | 106 | i | 4 | 1
Nc1ccc(N2CCN(Cc3ccccc3Cl)CC2)c(Cl)c1 | 1.6 | 112 | 0.92 | 40 | i | 0 | -10
O=C1NC(=O)C(=Cc2ccccc2Oc2ccc(F)cc2)C(=O)N1 | x | 114 | 0.87 | 179 | i | 50 | 2

# Overlap with the part before: two compounds, followed by the next part.
Molecule | GALR2 agonist | RGS16-Gao | HSV replic up primary fold | INS promoter inh cell count | HSV replic up | INS promoter inh | PKD1 inh
Nc1ccc(N2CCN(Cc3ccccc3Cl)CC2)c(Cl)c1 | 1.6 | 112 | 0.92 | 40 | i | 0 | -10
O=C1NC(=O)C(=Cc2ccccc2Oc2ccc(F)cc2)C(=O)N1 | x | 114 | 0.87 | 179 | i | 50 | 2
CCn1c(O)c(N=Nc2cccc(S(=O)(=O)N3CCOCC3)c2)c(=O)n(CC)c1=S | x | 103 | 0.99 | x | i | x | x
CN(C)CCc1nn[nH]n1 | 0.7 | 97 | 1.3 | 48 | i | 14 | 1
COc1ccc(C2SCC(=O)Nc3c2c(=O)[nH]n3C2CCCCC2)cc1 (stereo not drawn) | -3.1 | 98 | 0.86 | x | i | x | 6
O=C(c1cccn2c(=O)c3ccc(Cl)cc3nc12)N1CCC2(CC1)OCCO2 | 0.5 | 76 | x | 73 | x | 34 | -9
CCC1(CC)C(=O)NC(=Nc2cccc(C(F)(F)F)c2)NC1=O | -0.7 | 104 | 0.8 | 80 | i | 3 | -1
CCOP(=O)(OCC)C(NC(=O)c1cccc(C)c1)C(Cl)(Cl)Cl (stereo not drawn) | x | 95 | 0.97 | x | i | x | x
C=CCN1C(=O)NC(=O)/C(=C/c2ccc(OC)c(CSc3ccccn3)c2)C1=O | -1.3 | 99 | 0.87 | 93 | i | -53 | 7
COc1cc(CN2CC3CC(C2)c2cccc(=O)n2C3)cc(OC)c1OC (stereo not drawn) | -1.4 | x | 0.92 | x | i | x | -8
COP(=O)(Cc1ccc(C#N)o1)OC | x | 102 | 0.98 | x | i | x | x
CCCOC(=O)c1c(N)n(Cc2cccs2)c2nc3ccccc3nc12 | 1.3 | 102 | 0.91 | 141 | i | 7 | -4
COc1ccccc1CN1CCCC(C(=O)c2ccccc2SC)C1 (stereo not drawn) | x | 103 | 0.59 | x | i | x | 5
Cc1ccc(C2NC(=S)NC(c3ccc(C)cc3)C23C(=O)NC(=O)NC3=O)cc1 (stereo not drawn) | -2.1 | 103 | 1.1 | 118 | i | 15 | -6
COc1cccc(-c2nc3ccc(N4CCN(C)CC4)cc3[nH]2)c1 | x | 99 | 0.76 | x | i | x | -1
C#CCNc1ccncc1S(=O)(=O)NC(=O)NC(C)C | 0.9 | 86 | 1 | 147 | i | 54 | 1
O=C1CN=C(c2ccc(Br)cc2)c2c(sc3c2CCCC3)N1CCN1CCCCC1 | x | 106 | 0.94 | 94 | i | -108 | 1
CN1C2CCC1C(COC(=O)c1ccccc1)C(O)C2 (stereo not drawn) | x | 94 | 0.7 | x | i | x | x
CSc1nc2ccc(C)cc2c(=O)n1-c1cccnc1 | x | 101 | 1 | x | i | x | x
Cc1ccc(CNCCc2ccccc2F)cc1 | -1.1 | 106 | 0.92 | 110 | i | -7 | -5
Cc1ccsc1C(=O)C1CCCN(Cc2cc(C(C)C)n[nH]2)C1 (stereo not drawn) | x | 98 | 0.94 | 115 | i | -17 | 0
CN1CCN(c2ccc([N+](=O)[O-])c(N/N=C3\CN4CCC3CC4)c2)CC1 | -2.0 | 105 | 0.7 | 98 | i | 32 | -4
c1cnc(N2CCNCC2)nc1 | x | 112 | 0.94 | 111 | i | 33 | -7
Cc1ccc2c(c1)=NC(=O)/C(=C/c1c(O)[nH]c(=O)[nH]c1=O)C=2 | x | 92 | 1 | x | i | x | x
Cc1ccsc1C(=O)C1CCCN(Cc2ccc(O)cc2)C1 (stereo not drawn) | x | 99 | 0.92 | x | i | x | -4
O=C1CN=C(c2ccccc2)c2cc(Br)ccc2N1Cc1cc(=O)n2ccccc2n1 | 1.3 | 111 | 0.9 | 175 | i | 29 | -5
Cc1c(N=Cc2c(O)n(Cc3ccc(F)cc3)c(=O)[nH]c2=O)c(=O)n(-c2ccccc2)n1C | 0.5 | 53 | 0.99 | 153 | i | 7 | -1
CCOC(=O)c1c(N)n(Cc2ccc(OC)cc2)c2nc3ccccc3nc12 | 2.9 | 101 | 0.98 | x | i | x | 7
Cn1c(=O)cc(OCC(=O)N2CCC3(CC2)OCCO3)c2ccccc21 | -1.3 | 101 | 0.88 | 121 | i | -19 | -2
CN1CCN(c2ccc(C(N)=O)cc2[N+](=O)[O-])CC1 | -0.5 | 148 | 0.92 | 113 | i | 25 | 0
C=C1C(O)(c2ccccc2)C2CC[N+]1(C)CC2 (stereo not drawn) | -0.4 | 104 | x | 93 | x | 51 | -2
Cc1ccc(Sc2ccc(C=C3C(=O)N(C)C(=O)N(C)C3=O)o2)cc1 | x | 79 | 1.1 | 91 | i | -11 | 4
Fc1cccc(F)c1-c1nc(-c2ccc(Cl)cc2)no1 | x | 119 | 0.96 | x | i | x | x
CNC(=O)O/N=C(\N)Cc1csc2ccccc12 | x | 100 | 1 | x | i | x | x
CCC(C)n1c(O)c(/C=N/N2CCOCC2)c(=O)[nH]c1=S (stereo not drawn) | -0.9 | 104 | 1.1 | 113 | i | 53 | 5
C/C(Cl)=C/CC1(CN2CCCC2=O)C(=O)NC(=O)NC1=O | 0.0 | 101 | 1.1 | 100 | i | -55 | -4
C=C1N2CCC(CC2)C1(O)c1ccc(C)cc1 (stereo not drawn) | 0.2 | 76 | 0.98 | 95 | i | -75 | -6
CC(C)N1C(=O)/C(=C/C=C/c2ccco2)C(=O)N(Cc2ccco2)C1=O | -1.0 | 95 | 1.2 | x | i | x | 2
N#Cc1ccccc1Cn1cc(C(=O)c2cccs2)c2ccccc21 | -2.3 | 87 | 0.68 | 132 | i | -55 | 0
N#Cc1c(/N=C/c2c(O)n(Cc3ccco3)c(=O)[nH]c2=O)sc2c1CCCC2 | -0.2 | 100 | 1.1 | x | i | x | -3
Cc1cccc(N2C(=O)NC(=O)/C(=C\c3cnn(-c4ccccc4)c3)C2=O)c1 | 34* | 96 | 0.79 | 93 | i | -12 | -8
Oc1ccc2ccccc2c1CN1CC=C(c2ccccc2)CC1 | x | 100 | 0.98 | 92 | i | 17 | 0
O=c1c2ccccc2nc(-c2ccco2)n1-c1nccs1 | -0.6 | 106 | 0.87 | 101 | i | -14 | -9
Cc1ccccc1NC(=S)NC(NC(=O)CF)C(Cl)(Cl)Cl (stereo not drawn) | -0.7 | 102 | 0.98 | 122 | i | -47 | 1
c1ccc(C2CN3CCC2CC3)cc1 (stereo not drawn) | x | 101 | 0.79 | x | i | x | x
COc1ccc(NC(c2ccccc2F)P(=O)(Oc2ccccc2)Oc2ccccc2)cc1 (stereo not drawn) | 0.8 | 102 | 0.92 | x | i | x | -2
CC(Cc1ccccc1)NC(=O)/C=C/c1ccc(Cl)cc1 (stereo not drawn) | -1.9 | 117 | 0.93 | x | i | x | 1
CC1=C(C(=O)Nc2ccccc2)S(=O)(=O)CCO1 | x | 100 | 0.74 | x | i | x | x

# 2 of the compounds above, with two lines to a compound.
# Values in the order: GALR2 agonist, RGS16-Gao, HSV replic up primary fold, INS promoter inh cell count, HSV replic up, INS promoter inh, PKD1 inh
> c1ccc(C2CN3CCC2CC3)cc1 (stereo not drawn)
    x, 101, 0.79, x, i, x, x
> N#Cc1c(/N=C/c2c(O)n(Cc3ccco3)c(=O)[nH]c2=O)sc2c1CCCC2
    -0.2, 100, 1.1, x, i, x, -3

# Only part of the results is shown. The share of hits here may be higher or lower than overall.
